Sa RN4220 lethal = S. aureus RN4220 growth inhibition | OD600, 16 h | AID 1259311 | 330,000 compounds, 0.33% hits | inhibition, % (no concentration beside the values);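 active means z-score of -3 or lower and OD600 up to 0.18 on both plates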;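 further: plate controls were untreated cells for no effect and reference antibiotic for full effect; stock transfer was 100 nL into about 80 µL; one replicate is shown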
PrP UTR inh = suppresses PrP 5' UTR mRNA reporter expression. AID 488862. inhibition, % (no concentration beside the values). cell-based PrP 5' UTR mRNA reporter, plate reader. 340,000 compounds, 0.35% hits;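 active means every replicate at 50% or more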;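 further: 0 = median of the neutral control wells; tested in H4 reporter cells; numbers are from one replicate; inactives centre near -14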
Autofluor counter = flagged as autofluorescent in microsphere protease counterscreen. 360,000 compounds, 3.1% hits. fluorescence intensity (no concentration beside the values). compound autofluorescence counterscreen, microsphere flow cytometry; active compounds read high. AID 624483;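 active means at least 3 SD above the mean of all compounds, about 16000 in these data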;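 further: 100 nL of 1 mM stock went into each well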
Sa ugtP lethal = compounds lethal to S. aureus RN4220 ugtP deletion mutant. OD600 growth, 16 h; some inactives read as strong as hits. growth inhibition, % (test concentration not listed). 330,000 compounds, 0.54% hits;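 active means z-score under -3 and OD600 up to 0.15 on both plates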;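 further: plate controls were untreated wells for no effect and antibiotic for full effect; wells of about 80 µL received 100 nL stock; the first replicate is given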
BJeLR lethal = kills HRASV12-expressing BJeLR cells; BJeLR (HRASV12) viability, CellTiter-Glo ATP luminescence, 48 h; reference of the scale not given here; inhibition, % (test concentration not listed); 300,000 compounds, 0.17% hits;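 active means replicate mean above 50%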;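 further: 50 nL library stock added to about 25 µL; numbers are from one replicate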
Mtb hypoxia inh = inhibitors of hypoxia-regulated fluorescent reporter in Mycobacterium tuberculosis. M. tuberculosis hypoxia-regulated fluorescent reporter, fluorescence. fluorescence inhibition, % (concentration not given with the values). 300,000 compounds, 0.1% hits. AID 1159583;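 active means 35 to 45% if threefold the growth effect, above 45% if 1.5-fold the growth effect; inactive means the rest, general growth blockers included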;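 further: wells of about 50 µL received 100 nL stock; 0% = vehicle wells and 100% = reference inhibitor wells; whole bacteria with a GFP reporter of the hypoxia response; strong numbers were not always called active; many hits fall short of the cut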
Mtb hypoxia inh growth = further read-out of Mtb hypoxia inh, marked with its call; growth inhibition, %; measured here: M. tuberculosis growth (absorbance);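 0% = vehicle and 100% = reference antibiotic; read after six days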
* = called active by the depositor; / = no result given.

canonical_smiles	BJeLR lethal	Sa ugtP lethal	Autofluor counter	Mtb hypoxia inh growth	Mtb hypoxia inh	Sa RN4220 lethal	PrP UTR inh
O=C(COC(=O)Cc1ccc(F)cc1)NCCc1ccccc1	3.9	-7.1	5431	-3.9	-13.9	-5.4	1.3
CC(C)C1C(c2ccccc2)N(C)C(c2ccccc2)CC1(O)c1ccccc1 (stereo unspecified)	4.9	-62.6	21931*	6.5	-8.9	-13.3	-5.1
CN1CCN/C1=C(/C(Cl)=C(Cl)Cl)[N+](=O)[O-]	-2.0	2.8	4881	11.5	8.5	5.6	-47.3
CC(=NNc1nnc(-c2ccccc2)c(-c2ccccc2)n1)c1cccc([N+](=O)[O-])c1	/	-7.4	/	3.2	-1.3	1.0	/
CCc1nc(Nc2ccc(O)cc2)c2oc3ccccc3c2n1	-3.1	7.2	3944	8.1	-6.4	21.4	-17.3
CC(C)COP(=O)(c1ccc(N(C)C)cc1)C(Nc1ccccc1)c1cccnc1 (stereo unspecified)	3.4	0.2	2301	5.3	6.6	3.9	4.7
CC1CCN(C(=O)COC(=O)c2ccc(Cl)nc2)CC1	/	4.1	5274	6.5	13.5	3.2	-24.3
Cc1cc(Cl)ccc1OC(C)C(=O)OCC(=O)Nc1ccc2[nH]c(=O)[nH]c2c1 (stereo unspecified)	/	2.0	5689	0.5	-1.6	1.9	-14.2
COc1cccc(-c2nc(CS(=O)CC(=O)NCc3ccc(F)cc3)c(C)o2)c1 (stereo unspecified)	-3.8	10.0	4533	-6.0	1.9	2.9	-15.8
CCCCCn1c(=O)[nH]c2cc(C(=O)O)ccc2c1=O	0.8	2.4	6795	11.5	6.2	1.5	-6.0
CC(=O)N1CC(=O)N(OCc2ccccc2)C1c1ccc(Cl)cc1Cl (stereo unspecified)	1.1	4.4	10307	-0.6	9.6	5.1	-13.7
CCOc1cccc(-c2c(C(=O)N/N=C/c3ccc(C)o3)nnn2-c2nonc2N)c1	-7.5	/	5314	/	/	/	-9.6
Cc1ccc(C)c(NC(=O)CN2C(=O)NC(C)(c3ccc4c(c3)OCCO4)C2=O)c1 (stereo unspecified)	/	4.5	7944	73.4*	33.9*	-0.8	-23.1
COC(=O)c1ccc(NC(=O)Cn2nc(C(=O)Nc3ccc(C)cc3)ccc2=O)cc1	-2.6	-6.7	5900	4.4	-7.0	4.9	6.0
COc1cc(C)ccc1OCC(=O)Nc1nnc(C2CC2)s1	/	2.2	4296	13.3	-0.3	-0.8	-11.7
O=C(NN=Cc1cc(Br)c(Br)o1)c1ccc2c(c1)OCCO2	/	-11.1	/	-1.5	6.1	1.0	/
CC(C)CCNC(=O)CN(CC1CCCO1)C(=O)CCC(=O)Nc1nccs1 (stereo unspecified)	-4.6	1.1	3525	/	/	5.5	6.5
C(=NNc1nc(N2CCOCC2)nc(N2CCOCC2)n1)c1cccnc1	/	6.8	/	4.0	0.5	3.2	/
Cc1ccc(-c2csc(NS(=O)(=O)c3cccc(F)c3)n2)o1	/	5.1	2883	4.7	8.4	5.6	-13.5
C=C1CCC[C@]2(C)C[C@H]3OC(=O)C(CN(C)CC(OC)OC)[C@H]3CC12 (stereo partly specified)	-3.8	5.6	4117	1.3	-3.8	3.2	-14.2
O=C(NCCc1ccccc1)c1ccc(CS(=O)(=O)c2ccc(Cl)cc2)o1	1.6	-7.6	4333	1.2	2.5	2.8	-23.8
O=C(COc1ccccc1)Nc1ccc([N+](=O)[O-])cc1	3.1	-1.9	1910	12.9	6.5	1.1	-26.2
O=C(NNC(=S)NCc1ccc(Cl)cc1)c1cccnc1	4.9	1.6	5531	-1.6	2.6	3.5	-13.7
COc1ccc(C(=O)Nc2ccc(N3CCCCCC3)cc2)cc1S(=O)(=O)N1CCOCC1	/	-1.8	8664	6.1	4.4	-0.9	-8.8
CCn1cc(C(=O)O)c(=O)c2cc(F)c(N3CCN(C(=S)NC(=O)c4ccc(F)c(F)c4)CC3)cc21	-8.8	99.9*	3381	5.9	8.6	99.6*	13.9
COc1cccc(NC(=O)Nc2ccc(CC(=O)O)cc2)c1	4.7	8.2	2565	8.9	7.6	5.5	-14.9
CC(C)(C)n1nc2c(c1NC(=O)c1cc([N+](=O)[O-])ccc1Cl)CS(=O)(=O)C2	5.3	3.5	5483	1.5	0.8	1.5	-12.3
CNc1ccccc(-c2ccc3cc4c(cc3n2)OCO4)c1=O	12.4	11.1	7331	2.0	0.5	1.9	-16.9
Cc1ccc(-c2cc(C(F)F)n3ncc(C(=O)NN4CCCCC4)c3n2)cc1	-4.0	-6.1	2278	-10.2	-24.2	5.1	-26.0
CCN(c1ccccc1)S(=O)(=O)c1ccc(OC)c(NC(=O)Cn2cnc3c2c(=O)n(C)c(=O)n3C)c1	4.1	10.8	4978	6.3	2.2	13.3	3.0
CCNc1nc(NCC)n2c(SCC(=O)O)nnc2n1	-0.9	1.5	3350	8.3	7.3	3.4	-18.3
CCCOc1ccccc1Cn1c(=O)oc2ccc(C)cc21	-6.6	26.3	3875	8.6	8.2	2.7	-7.7
CC1N(C)c2cc(NC(=O)c3cccs3)c(P(=O)(Nc3ccc([N+](=O)[O-])cc3)N3CCOCC3)cc2C1(C)C (stereo unspecified)	9.7	5.3	3354	9.0	-9.7	1.5	-15.4
CC(C)CC(=O)Nc1ccc(S(=O)(=O)N2CCCC2)cc1	-4.3	8.9	4285	2.5	3.4	0.7	-71.0
O=C1C(C=NCCCN2CCOCC2)=C(O)c2ccccc21	2.4	2.0	3906	-4.2	0.6	0.9	-13.3
O=C(CSc1nnc(SCc2ccc(Cl)cc2)s1)N1CCN(C(=O)c2ccco2)CC1	3.0	0.2	3050	5.5	22.3	0.5	-16.8
Cc1ccccc1Nc1nc(N2CCOCC2)nc(N2CCOCC2)n1	11.2	-0.5	5421	9.9	8.0	1.0	0.1
CC1C(O)=C(c2nc3ccccc3[nH]2)C(=N)N1c1ccccc1 (stereo unspecified)	1.9	-4.6	11136	11.1	1.9	-3.8	-34.9
O=C(CCN1CCN(c2ccccc2)CC1)NNC(=S)Nc1ccccc1	12.2	-1.1	4478	8.8	-7.0	1.6	-35.2
C(=N\Nc1ccc2nncn2n1)/c1ccco1	-8.3	/	5720	/	/	/	-12.4
CCN1CCN(C(=O)Cc2ccccc2OC)CC1	1.8	3.9	6229	-14.2	-16.3	5.6	-8.8
NC(=NOCc1ccc([N+](=O)[O-])cc1)c1ccccn1	/	-0.2	/	-19.2	12.8	8.5	/
CC(C)NC(=O)/C(C#N)=C/c1cccc(NC(=O)c2ccccc2Cl)c1	-12.5	-5.5	2413	6.5	1.9	1.8	-7.0
Cc1cc(C(=O)OCC(=O)N(C)C2CCS(=O)(=O)C2)c(C)n1-c1ccccc1 (stereo unspecified)	-2.0	5.5	4794	/	/	2.7	-18.9
COc1ccc(S(=O)(=O)N2CCOCC2)cc1NC(=O)COC(=O)Cc1ccccc1	/	0.7	3065	-1.3	0.3	-1.5	-18.2
CCN(CC)CCNC(=O)c1cccc(NC(=O)C(=O)c2ccccc2NC(C)=O)c1	-10.4	-6.7	4123	9.0	8.3	-0.9	-6.0
Cc1ccc(Nc2c(O)nc[nH]c2=O)cc1C	/	2.2	4048	10.3	19.4	2.6	-14.9
COc1ccc(O)c(-c2cn[nH]c2-c2cccs2)c1	-3.7	-0.1	4533	9.5	8.9	1.6	4.8
CC(/C=C/c1ccccc1)=NNc1nc(-c2ccccc2)cs1	/	-12.7	/	/	/	8.8	/
O=C(Nc1ccc2c(c1)OCCO2)C1CCCN(S(=O)(=O)c2cccnc2)C1 (stereo unspecified)	5.0	4.5	5433	/	/	0.3	-9.4
Cc1ccc(C(=O)NCCC(=O)N2CCC3(CC2)NCCc2[nH]cnc23)cc1C	2.5	7.2	5600	3.4	6.1	4.0	-14.6
COc1ccc(CN2CCN(Cc3ccccc3)CC2)c(OC)c1	/	0.6	15641	-5.6	-0.3	-4.9	-11.3
COc1ccc(-n2cc(C#N)c(=O)[nH]c2=O)cc1	-5.6	2.9	2521	3.9	5.7	4.5	-11.8
O=C(CSc1nc(O)c(C2CCCCC2)c(=O)[nH]1)Nc1ccc(Cl)cc1	-0.3	-3.6	2156	/	/	1.4	-6.3
Oc1c(Br)cc(CNC2CCCCC2)cc1Br	/	-1.9	4283	9.4	6.5	2.0	-24.2
Cn1c(NC(=O)c2cc(-c3ccc4c(c3)OCO4)nc3ccccc23)cc(=O)n(C)c1=O	2.5	8.9	3309	10.4	-6.3	9.9	-26.5
Cc1ccnc(NC(=O)CNC(=O)c2ccc3ccccc3c2)c1	6.6	-2.8	/	-5.4	2.2	-4.0	-6.1
COC(=O)C1=C[C@@H](C(=O)OC)C2C3=C(C(=O)C24CCCCC4)[C@H](C)n2c(=O)n(C)c(=O)n2[C@@H]3C1 (stereo partly specified)	6.5	/	4030	/	/	/	-7.0
COc1ccc2nc(SCC(=O)c3ccco3)[nH]c2c1	-2.4	6.6	7597	7.4	14.0	5.9	-110.1
CCN1C(=O)[C@H]2[C@@H](c3ccc(-c4ccc(C(C)=O)cc4)c(OC)c3)N[C@@](Cc3ccccc3)(C(=O)OC)[C@H]2C1=O	6.4	/	4249	/	/	/	-8.6

Later entries:
canonical_smiles	BJeLR lethal	Sa ugtP lethal	Autofluor counter	Mtb hypoxia inh growth	Mtb hypoxia inh	Sa RN4220 lethal	PrP UTR inh
C/C(=N/NC(=O)c1sc(=S)n(C)c1C)c1ccccc1	3.1	/	2666	/	/	/	-17.4
Cc1cc(C)nc(SCC(=O)N2CCOCC2)n1	-5.5	12.8	6668	6.2	-4.5	5.7	-25.6
Cc1ccc(NC(=O)CN(C)C(=O)/C=C/c2ccc3c(c2)OCO3)cc1	/	-1.8	3829	-0.3	9.3	8.9	-19.5
CCC(C)(C)NC(=O)C(c1cccc(OC)c1OC)N(C(=O)CCC(=O)Nc1cc(C)on1)C(C)C (stereo unspecified)	0.0	10.1	4838	1.0	6.2	1.5	-35.5
COc1cccc(Cn2cnc3c([N+](=O)[O-])c(C)c(C)cc32)c1	6.9	-6.9	4297	-4.4	8.9	5.8	-5.2
COc1ccc(-c2csc(NC(=O)c3ccccc3NS(=O)(=O)c3ccc(C)cc3)n2)cc1	27.3	67.0	1959	7.9	2.4	59.0	-17.5

Full records from above. Screens in order: BJeLR lethal | Sa ugtP lethal | Autofluor counter | Mtb hypoxia inh growth | Mtb hypoxia inh | Sa RN4220 lethal | PrP UTR inh
Cc1cc(C)nc(SCC(=O)N2CCOCC2)n1 is listed as -5.5 | 12.8 | 6668 | 6.2 | -4.5 | 5.7 | -25.6
C/C(=N/NC(=O)c1sc(=S)n(C)c1C)c1ccccc1 is listed as 3.1 | / | 2666 | / | / | / | -17.4
Cc1ccc(NC(=O)CN(C)C(=O)/C=C/c2ccc3c(c2)OCO3)cc1 is listed as / | -1.8 | 3829 | -0.3 | 9.3 | 8.9 | -19.5
